# Compound activity deposited in PubChem by National Center for Advancing Translational Sciences (NCATS).
# Rango-impB inh: qHTS Assay for Inhibitors of Rango (Ran-regulated importin-beta cargo) - Importin beta complex formation; Importin subunit beta-1 (Homo sapiens), Q14974; 0.031% of 340,000 active; AID 540263, 2011; Rango CFP/YFP FRET sensor + importin beta, 45 min; Potency, µM (titrated, usually from 92.2 µM), inactives show at the top dose inhibition of complex formation; active = rising FRET ratio curve, often small or poorly fitted; inconclusive = mostly compound fluorescence or quenching in the first reads; inactive = flat curves in all reads;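 also: potency is read from the fitted curve at half-maximal effect; 0% = DMSO wells and 100% = buffer wells lacking importin beta; nearly all actives have a fitted effect of over 15% in size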
#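 Inhibition scored from the CFP 486 nm/YFP 530 nm FRET ratio 45 min after adding 0.125 microM importin beta to 50 nM Rango biosensor preincubated 5 min with compound (room temperature, PBS with DTT, Tween-20, BSA). No-importin wells as positive control.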
# miR-21 reporter: qHTS Assay for Modulators of miRNAs and/orActivators of miR-21; HeLa miR-21 FLuc reporter, luciferase, 48 h; Potency, µM (highest dose often 38.3 µM), inactives show top-dose reporter change, positive = more light; 340,000 tested, under 10 active; AID 2288, 2010; active = well fitted rising curve with a large enough effect; inconclusive = small, poorly fitted or top-dose-only effect; inactive = no such curve, though single readings can be large or run the other way;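 also: % of control where 0% means no effect; miR-21 action dims this reporter so a rising signal means less miR-21 action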
#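 Luminescence from a firefly luciferase reporter carrying a miR-21 binding site downstream, stably expressed under a CMV promoter in HeLa cells that make miR-21 endogenously, reports miRNA modulation after 48 h compound exposure up to approximately 40uM final.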
# Rango dissoc inh: qHTS Assay for Inhibitors of RanGTP induced Rango (Ran-regulated importin-beta cargo) - Importin beta complex dissociation. Biochemical FRET Rango-importin beta, RanGTP-induced dissociation. 0.071% of 340,000 active. Potency, µM (top dose mostly 46.1 µM), for inactives: at the top dose activity change, negative = inhibition. Snurportin-1 (Homo sapiens) + GTP-binding nuclear protein Ran (Homo sapiens) + Importin …; active means falling FRET ratio curve, often poorly fitted, with flat reads before Ran was added; inconclusive means other falling curves, or compound fluorescence or quenching; inactive means flat or rising ratio curve;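 also: potency is read from the fitted curve at half-maximal effect; % of control where 0% means no effect; nearly all actives have a fitted effect of over 45% in size; -100% = wells without RanGTP and RCC1; the record marks most hits as doubtful in a second field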
#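 FRET read at 45 min, room temperature: inhibitors block the CFP/YFP signal rise when RanGTP (0.6 uM Ran, 2 mM GTP, 0.2 uM RCC1) frees Rango (0.1 uM) from importin beta (0.25 uM). Pre-read after 5 min compound exposure flags interference.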
# GLA inh pH 4.5: qHTS Assay for Inhibitors of Human alpha-Galactosidase at pH 4.5 | activity change, negative = inhibition, % at 105 µM | purified enzyme, 4-MU-alpha-Gal fluorescence, pH 4.5 | Alpha-galactosidase A (Homo sapiens), P06280 | 230,000 tested, under 10 active; inconclusive = small, poorly fitted or top-dose-only inhibition, or a rising curve; inactive = flat fitted curve, though single readings scatter; no compound was filed as active;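 also: 0% = full activity with enzyme and -100% = basal without enzyme; dose as in the result columns while the protocol names 77 µM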
# Target sequence (P06280 whole entry, looked up): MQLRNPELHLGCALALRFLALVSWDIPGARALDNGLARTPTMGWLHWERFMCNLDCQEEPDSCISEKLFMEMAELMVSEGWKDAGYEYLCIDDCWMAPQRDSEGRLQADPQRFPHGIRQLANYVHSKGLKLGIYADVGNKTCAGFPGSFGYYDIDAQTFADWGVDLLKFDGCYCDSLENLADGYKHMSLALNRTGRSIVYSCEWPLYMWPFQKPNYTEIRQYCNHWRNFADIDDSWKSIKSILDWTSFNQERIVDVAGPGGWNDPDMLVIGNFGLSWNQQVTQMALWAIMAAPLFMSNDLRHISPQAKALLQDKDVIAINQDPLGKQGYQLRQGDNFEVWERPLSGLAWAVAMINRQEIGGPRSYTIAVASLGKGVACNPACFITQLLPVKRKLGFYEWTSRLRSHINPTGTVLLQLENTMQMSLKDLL
# The depositor's hits bear a star; ? = inconclusive; . = not tested or not shown; [ ] = remark or other dose.
SMILES,Rango-impB inh,miR-21 reporter,Rango dissoc inh,GLA inh pH 4.5
CCOC(=O)N1CCN(C(=O)CSc2ccc(C(F)(F)F)cc2[N+](=O)[O-])CC1,5.5%,-1.4%,15.4%,.
Cc1cc(C)n2nc(C)c(-c3ccc(Cl)cc3)c2n1,?,1.3%,11.6%,.
CCCOc1ccccc1/C=N/NC(=O)C1CC1,5.1%,-5.3%,12.9%,.
COc1ccc2c(C)cc(N3CCN(Cc4ccccc4)CC3)nc2c1,2.3%,-4.0%,0.6%,.
COc1cc(C(=O)N/N=C(\Cc2ncc[nH]2)c2ccccc2)cc(OC)c1OC,-2.6%,22.2%,-1.4%,-1.1
CN(c1cccc(NC(=O)c2ccc(N(C)S(=O)(=O)c3ccccc3)cc2)c1)S(C)(=O)=O,0.8%,?,11.5%,-5.0
CCOC(=O)N1CCN(S(=O)(=O)c2ccc3[nH]cc(C(=O)O)c(=O)c3c2)CC1,-5.9%,2.0%,-12.4%,9.9
O=C1C(Cc2ccccc2)Nc2ncnc(N3CCCCC3)c2N1Cc1ccccc1 (stereo not given),?,.,-18.1%,.
O=C(CCCn1c(=O)[nH]c2cc(Cl)ccc2c1=O)NC1CCCCCC1,0.0%,-0.4%,0.6%,-11.9
Cc1cccc(NC(=O)/C(C#N)=C/c2cn(CC(=O)NCc3ccco3)c3ccccc23)c1,?,-3.0%,?,7.0

# Some entries already given, showing only miR-21 reporter:
SMILES | miR-21 reporter
Cc1cc(C)n2nc(C)c(-c3ccc(Cl)cc3)c2n1 | 1.3%
CCCOc1ccccc1/C=N/NC(=O)C1CC1 | -5.3%

# (next part)
SMILES,Rango-impB inh,miR-21 reporter,Rango dissoc inh,GLA inh pH 4.5
Cc1ccc(NC(=S)NNC(=O)Cn2nc(C(F)F)cc2C(F)F)cc1,-0.5%,-11.6%,-12.0%,-9.3
COCCN1C(=O)c2ccc(C(=O)Nc3cccnc3)cc2C1=O,-0.8%,-1.2%,-8.3%,.
N#Cc1ccc(C(=O)Nc2cc(-c3ccccc3)nn2-c2ccccc2)cc1,-5.5%,.,15.1%,.
Cc1nn(-c2ccccc2)c(C)c1/C=N/N1CCN(c2ccccn2)CC1,-0.8%,-8.1%,-19.4%,10.0
COc1ccc(N2C(=O)CC(N3CCCCC3)C2=O)cc1 (stereo not given),-2.1%,-1.5%,-1.1%,4.2
O=C(COC(=O)Cc1ccc(S(=O)(=O)N2CCOCC2)s1)NCc1ccc(Cl)cc1,-6.0%,-6.6%,-22.1%,2.7
CCOc1ccc(NC(=O)CCN2CCN(S(=O)(=O)c3ccc(Cl)cc3)CC2)cc1,1.7%,12.9%,3.6%,-3.8
Cc1cc(Br)ccc1SCC(=O)OCC(=O)NCc1ccco1,-6.1%,-1.9%,-10.9%,-12.7
COCCCNC(=O)CN(c1ccc(Cl)c(Cl)c1)S(C)(=O)=O,0.7%,-3.4%,6.0%,7.5
COc1ccccc1OCCOCCOc1ccc(C)cc1Br,2.4%,-12.6%,10.5%,-5.7
CN1CCN(C(=O)N2c3ccccc3CCc3ccccc32)CC1,-0.5%,-6.4%,2.3%,-2.4
Cc1cc(C)n(-c2ccc(C(=O)OC(C)C(=O)Nc3ccc(C(N)=O)cc3)cc2)n1 (stereo not given),-0.7%,.,-3.6%,.
O=C(Nc1cccc(CNCCc2c[nH]c3ccccc23)c1)c1ccccc1Cl,-0.7%,-5.3%,7.7%,.
O=C(CNC(=O)c1ccc(Br)o1)NCC1CCCO1 (stereo not given),-2.0%,0.9%,4.0%,.
Clc1ccc(OCc2nn3c(-c4ccccc4)nnc3s2)c(Cl)c1,-4.2%,1.6%,0.5%,-1.7
COc1ccc(C(=O)NCC(=O)OC2CCCCC2=O)cc1 (stereo not given),1.7%,0.1%,-23.0%,6.1
COc1cccc(/C=N/N=C(\N)c2nonc2N)c1O,-3.5%,-60.3%,1.1%,-0.4
COc1ccc(OC)c(S(=O)(=O)NCc2csc(-c3ccccc3)n2)c1,-3.8%,-6.0%,2.2%,-3.4
COC(=O)CN(Cc1ccccc1)S(=O)(=O)c1ccc(OC)c(OC)c1,-4.4%,-12.4%,5.5%,-11.1
O=S(=O)(c1ccccc1)N1CCN(c2nnc(-c3ccccc3)c3ccccc23)CC1,2.1%,0.4%,-5.9%,-8.0
O=C(O)c1ccc(NS(=O)(=O)c2cccc3nsnc23)cc1,-1.8%,0.1%,1.1%,-7.4
CCCC(C)NC(=O)COc1ccc(S(=O)(=O)N2CCCC2)cc1 (stereo not given),?,-0.2%,2.3%,7.3
CCCS(=O)(=O)N1CCCC(C(=O)NCCCN2CCN(c3cccc(Cl)c3)CC2)C1 (stereo not given),6.2%,3.1%,5.5%,-10.9
Cc1cc(C(=O)CN2CCCC(C)C2)c(C)n1-c1ccc(F)cc1 (stereo not given),?,-47.2%,14.3%,3.1
O=S(=O)(NCCc1ccc(F)cc1)c1cc(C(F)(F)F)ccc1Br,-0.3%,.,-5.3%,.
COc1cc(Cl)c(C)cc1NC(=O)CSc1sc2c(O)cc(=O)[nH]c2c1C#N,0.1%,5.7%,-20.9%,.
Cc1ccc2[nH]c3c(c2c1)CN(C(=O)CN1CC(C)OC(C)C1)CC3 (stereo not given),?,-1.8%,?,-6.8
N#CCCCSc1nnc(-c2ccccn2)o1,2.2%,-26.6%,11.9%,-4.0
O=C(c1ccc(Cn2cc(Br)cn2)cc1)N1CCN(c2ccccc2)CC1,?,15.9%,0.5%,-5.0
O=C(O)CC1S/C(=N\N=C2CCCCCC2)N(c2ccccc2)C1=O (stereo not given),5.7%,-0.9%,7.5%,-12.8
COc1cc2c(cc1OC)C(c1cccs1)N(C(=O)c1cccnc1)CC2 (stereo not given),0.7%,13.5%,-20.4%,6.6
NS(=O)(=O)c1ccc(NS(=O)(=O)c2cccs2)cc1,-4.3%,-4.5%,-6.3%,-1.0
CCN1CCN(S(=O)(=O)c2ccc(Cl)c(C(=O)NC(C)(C)C)c2)CC1,-3.3%,2.4%,-0.2%,0.5
Cc1ccc(S(=O)(=O)N=S(CC2CC2(Cl)Cl)CC2CC2(Cl)Cl)cc1 (stereo not given),3.0%,3.3%,6.1%,0.9
Cc1cccc(Cc2cnc(N3C(=N)SC(C)C3=O)s2)c1 (stereo not given),3.4%,11.2%,-2.1%,3.9
O=C1NCCN/C1=C\C(=O)c1cccc(Br)c1,-0.7%,-49.1%,-4.2%,-6.9
CSc1ccc(/C=C(/NC(=O)c2ccc(C)cc2)C(=O)Nc2cccc(F)c2)cc1,0.2%,-7.2%,3.0%,10.4
Cc1cc(=O)n2nc(N3CCCC(C(=O)NCc4ccccc4Cl)C3)sc2n1 (stereo not given),-0.4%,-3.8%,-7.4%,.
COc1ccc(/C=N/n2cnnc2)cc1Br,-5.3%,-16.4%,1.0%,1.0
O=C(NC1CCCCC1)C1CCCN1S(=O)(=O)c1cccc2nsnc12 (stereo not given),1.5%,-15.8%,-8.0%,-10.8
CCCCOc1ccc(-c2ncc(Cl)cn2)cc1,-0.8%,-17.8%,2.6%,2.9
Cc1cc(S(=O)(=O)NCc2ccccc2)ccc1OCC(=O)N1CCOCC1,0.3%,-4.0%,-1.7%,4.9
O=C(NCCc1ccccc1)c1ccc(S(=O)(=O)N2CCCC2)cc1,-1.6%,.,2.1%,.
Cc1nn(CC(=O)N2CCN(C(=O)c3ccco3)CC2)c(C)c1[N+](=O)[O-],0.1%,.,-2.9%,.
CC(C)S(=O)(=O)c1nsc2nc(=O)c(/C=C3\C=Nc4ccccc43)c(N)n12,?,-0.6%,?,-11.1
O=c1cc(-c2ccccc2)nc(SCc2ccc(Cl)cc2)[nH]1,1.5%,-2.5%,1.2%,-0.6
COc1cc2cc(CN(CCCO)S(=O)(=O)c3ccccc3Cl)c(=O)[nH]c2cc1OC,-0.4%,-23.1%,-0.8%,-6.1
O=C(COC(=O)c1cccnc1)c1ccc(Cl)cc1,-2.3%,-6.6%,5.2%,-6.1
CCC(C)Sc1ccc(-c2nc3ccc(C)cn3c2NCc2ccccc2)cc1OC (stereo not given),?,.,?,.
FC(F)(F)c1cccc(N2CCN(c3ccc4nnc(-c5ccccc5)n4n3)CC2)c1,0.2%,-2.9%,10.9%,-4.7

# Later entries:
SMILES,Rango-impB inh,miR-21 reporter,Rango dissoc inh,GLA inh pH 4.5
Cc1cc(C)cc(NC(=O)Nc2ccc(S(=O)(=O)Nc3cc(C)on3)cc2)c1,1.6%,-8.3%,-21.2%,.
CCC(C)NC(=O)C1CCN(S(=O)(=O)c2cccc3cccnc23)CC1 (stereo not given),2.7%,-8.2%,-3.6%,-8.9
COc1ccc(Cl)cc1NC(=O)CSc1nc(-c2ccccc2)cc(=O)[nH]1,-1.4%,-3.8%,0.7%,.
COc1cc(C(C(=O)NC2CCCCC2)N(C(=O)Cc2c[nH]c3ccccc23)c2ccccc2C)cc(OC)c1OC (stereo not given),-0.9%,-4.9%,5.3%,-14.4
O=C(CN1C(=O)NC2(CCc3ccccc32)C1=O)c1ccccc1 (stereo not given),-3.2%,-5.6%,-10.9%,.
C=CCC[C@H](Cc1ccc(F)cc1)C(=O)OC[C@H](C)NC(=O)[C@H](CC=C)CC(=O)NCCO,-4.1%,.,-4.2%,.
CC(C)c1cc(C(=O)Nc2cccc(C(F)(F)F)c2)no1,?,-23.4%,17.3%,-9.0
COCc1c(C(=O)NCC2COc3ccccc3O2)oc2ccccc12 (stereo not given),2.9%,.,27.6%,.
O=C(Cn1nnc2ccccc2c1=O)Nc1cccc(S(=O)(=O)N2CCOCC2)c1,?,-3.1%,11.5%,-1.0
COc1cccc(-n2c(=O)[nH]cc(C(=O)Nc3ccc4c(c3)OCCO4)c2=O)c1,-1.0%,-6.2%,1.3%,-1.2
CSCCC(NC(=O)c1ccccc1Cl)C(=O)NC1CCN(Cc2ccccc2)CC1 (stereo not given),-3.9%,0.6%,17.3%,.
COc1ccc(C(=O)OCC(=O)Nc2ncc([N+](=O)[O-])s2)cc1OC,-3.0%,.,-1.2%,.
Cc1cccc(NC(=O)c2cc(NC(=O)c3ccccc3)ccc2N2CCCCC2)c1,5.7%,-1.7%,-3.0%,-1.6
CCOC(=O)C1CCN(S(=O)(=O)c2cccc(-c3cn4cc(Cl)ccc4n3)c2)CC1,3.0%,-8.7%,4.4%,7.1
COc1ccc(CN(C(=O)c2ccc(CN3CCOCC3)o2)C(C(=O)NCC2CCCO2)c2ccc(F)cc2)cc1 (stereo not given),2.3%,5.8%,-11.7%,2.2
CC(O)CNCc1ccc(-c2ccccc2)cc1 (stereo not given),5.9%,-10.9%,0.9%,-3.6
CCCCN1C(=O)C(=O)N(c2ccccc2)C1=S,-1.1%,-58.8%,4.8%,-0.4
Brc1ccc(C2CC(c3ccccc3)=Nc3ccccc3N2)cc1 (stereo not given),?,-77.4%,?,-0.9
CC1CCCCN1C(=O)C(=O)c1cn(CC(=O)N2CCCCCC2)c2ccccc12 (stereo not given),0.2%,-0.9%,-3.0%,.
O=C(CN1C(=O)COc2ccccc21)NCC1CCCO1 (stereo not given),-2.3%,0.8%,4.0%,.
COC(=O)c1ccc(C(=O)OC)c(NC(=S)N2CCN(c3ccccc3F)CC2)c1,-5.1%,-5.2%,-6.7%,-1.8
COc1cc(NS(=O)(=O)c2ccc3[nH]c(=O)oc3c2)cc(OC)c1,1.9%,-0.8%,1.2%,3.7[21.1 µM]
N#Cc1ccccc1Sc1ccccc1C(=O)N1CCOCC1,-0.1%,-4.1%,-2.3%,-3.6
CN(C)N=C1c2cc(S(=O)(=O)N(C)C)ccc2-c2ccc(S(=O)(=O)N(C)C)cc21,4.6%,-0.2%,5.5%,.
CN(c1ccccc1)S(=O)(=O)c1cccc(NC(=O)CSc2nnc(C3CC3)n2C)c1,-0.8%,.,8.7%,.

# This is a subset; count on the stated rates, not on these rows.
